# Methyltransferases: Primary Screen for Target Class Profiling of Small Molecule Inhibitors of Methyltransferases. purified enzyme, MTase-Glo SAH luminescence; stronger effect = lower value. calls only at 40 µM. hit rate 3.9% among 25,000. AID 1745853, 2022; active = -50% or lower on at least one of six enzymes; inconclusive = the cases between; inactive = as a rule above -30% on all six;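 note: enzymes were COMT GAMT GNMT HNMT NNMT and PNMT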
#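 Each enzyme was reacted with SAM and its substrate, with compounds tested once at 40 uM; SAH formed was read by MTase-Glo luminescence.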
# Calls only; i = inactive; ? = inconclusive; + = active, no number. % is set by controls: 0 for no effect and ±100 for the full control effect. A portion of the library, so the mix of outcomes need not match the whole.
smiles	Methyltransferases
CC(=O)O[C@H]1C[C@@](O)(C(C)C)C2[C@@H](OC(=O)c3ccc(O)cc3)C[C@@]3(C)O[C@H]3C[C@]21C (stereo partly specified)	?
CC(C)Cn1c(=O)c2ccccc2n2c(=O)n(CC(=O)Nc3ccc4c(c3)OCCO4)nc12	i
CCC(C)NC(=O)c1ccc2c(=O)n(C)c3nnc(SCc4cccc(Cl)c4)n3c2c1 (stereo unspecified)	i
CCS(=O)(=O)Nc1ccc(C(=O)NCc2cc3n(n2)CCNC3)cc1	i
CN1C(=O)c2cc(C(=O)N3CCC(Cc4ccccc4)CC3)nn2CC1(C)C(=O)NCc1ccccc1 (stereo unspecified)	i
O=C(O)CCC(=O)N1Cc2[nH]cnc2C[C@H]1c1nc(-c2ccc(OC(F)(F)F)cc2)no1	i
COC1CC(=O)C23C(=O)NC(CC(C)C)C2C(C)C(C)=CC3/C=C(\C)CCC(O)C1O (stereo unspecified)	i
COc1ccc(-c2cc3n(n2)CC(C)(C(=O)NCc2ccccc2)N(c2ccc(C)c(Cl)c2)C3=O)cc1 (stereo unspecified)	i
Cn1c(=O)n(C)c2cc(S(=O)(=O)NC3CCCCC3)ccc21	i
CNCCc1cnc(CCC(c2ccccc2)c2ccccc2)[nH]1	i
COc1ccc(C(=O)N2CCN(c3cc(-c4cccs4)[nH]n3)CC2)cc1OC	i
CC(C)CCNC(=O)c1cc2n(n1)CC(C)(C(=O)NCc1ccc(F)cc1)N(C)C2=O (stereo unspecified)	i
COc1cccc(CN2C(=O)c3cc4sccc4n3CC2(C)C(=O)NC2CCCC2)c1OC (stereo unspecified)	i
Cc1ccc(C)c(S(=O)(=O)c2nnn3c2nc(N2CCCC2)c2ccccc23)c1	i
Cn1cnc2c(=O)oc3ccc(S(=O)(=O)NCCc4ccc(Cl)cc4)cc3c21	i
O[C@@H]1C[C@@H](c2nc(Cc3ccc(F)cc3Cl)no2)N(Cc2ccc(OC(F)(F)F)cc2)C1	i
O=C(NCCc1ccc(F)cc1)c1cc(-c2ccccc2)c2nncn2n1	i
O=C(O[C@H]1[C@@H]2C=CO[C@@H](O[C@@H]3O[C@H](CO)[C@@H](O)[C@H](O)[C@H]3O)[C@@H]2[C@@]2(CO)O[C@@H]12)c1ccc(O)c(O)c1	i
O=C1NCCCCCCN(C(=O)c2ccccn2)[C@H]2CCCC[C@@H]12	i
CCOC(=O)CCNc1cc(N2CCc3ccccc3CC2)nc(-c2ccccn2)n1	?
C[C@@]12C[C@]3(O)O[C@H](O1)[C@]1(COC(=O)c4ccccc4)[C@H]3C[C@@]12O[C@@H]1O[C@H](CO)[C@@H](O)[C@H](O)[C@H]1O	i
COc1ccc(CN2C(=O)c3cc4sccc4n3CC2(C)C(=O)NC2CCCCC2C)cc1 (stereo unspecified)	i
O=C(O)c1ccc(CN2CC(COc3ccccc3)C3(C2)CN(c2ccccc2)C3)cc1 (stereo unspecified)	i
COc1ccc(N2CCN(C(=O)c3cc4c(s3)-c3ccccc3S(=O)(=O)C4)CC2)cc1	i
CCc1ccc(C(=O)NC(Cc2c[nH]c3ccccc23)C(=O)OCC(=O)c2ccc(C)cc2)cc1 (stereo unspecified)	i

# By substructure: those above containing a CF3 group (two)
smiles	Methyltransferases
O=C(O)CCC(=O)N1Cc2[nH]cnc2C[C@H]1c1nc(-c2ccc(OC(F)(F)F)cc2)no1	i
O[C@@H]1C[C@@H](c2nc(Cc3ccc(F)cc3Cl)no2)N(Cc2ccc(OC(F)(F)F)cc2)C1	i

# Other entries
smiles	Methyltransferases
Cc1noc(C)c1CCNC(=O)c1ncn2c1C(=O)N(C1CC1)C(C)(C(=O)NCc1ccccc1Cl)C2 (stereo unspecified)	i
NC(=O)CCNC(=O)C1=C[C@@H](NC(=O)c2cccs2)[C@@H](O)[C@H](O)C1	i
CC(=O)NCCNc1nc2c(-c3cccc(Br)c3)nnn2c2ccccc12	i
CC1=CC(=O)CC(C)(CO)C1(O)/C=C/C(C)O[C@@H]1O[C@H](CO)[C@@H](O)[C@H](O)[C@H]1O (stereo partly specified)	i
CC1(C(=O)NC2CCCCCC2)Cn2c(cc3sccc32)C(=O)N1Cc1ccc2c(c1)OCO2 (stereo unspecified)	i
CC(C)(O)c1ccccc1CC[C@@H](SCC1(CC(=O)O)CC1)c1cccc(/C=C/c2ccc3ccc(Cl)cc3n2)c1	+
COc1cccc(CN2C(=O)c3ccc(-c4ccccc4)n3CC2(C)C(=O)NC2CCCC2)c1 (stereo unspecified)	i
CCn1c(=O)n(CC)c2cc(S(=O)(=O)Nc3ccc(Br)cc3F)ccc21	i
COc1ccc(OC)c2c1cc1n2CC(C)(C(=O)NC2CCCCC2C)N(Cc2ccccc2)C1=O (stereo unspecified)	i
CC1(C)CC[C@]2(C(=O)OC3OC(CO)C(O)C(O)C3O)CC[C@]3(C)C(=CCC4[C@@]5(C)CC[C@H](OC6OC(C(=O)O)C(O)C(O)C6O)C(CO)(CO)C5CC[C@]43C)[C@@H]2C1 (stereo partly specified)	i
COC(=O)c1ncn2c1C(=O)N(CCc1ccc(SC)cc1)C(C)(C(=O)NC1CCCCC1)C2 (stereo unspecified)	i
CN(C)c1nc(N)c(C(=O)N=C(N)N)nc1Cl	i
NCCCS(=O)(=O)O	i
C=CCn1c(=O)c2ccc(C(=O)NC(C)C)cc2n2c(=O)[nH]nc12	i
COCCn1c(C)cnc1CC1CCN(C(=O)C2CC2)CC1	i
O=C(O)CC[C@@H](C(=O)O)N1C(=O)c2ccccc2C1=O	i
O=C(Cn1c(=O)oc2cc(S(=O)(=O)N3CCCC3)ccc21)NCC1COc2ccccc2O1 (stereo unspecified)	i
CCCCN1C(=O)c2cc(C(=O)Nc3ccc(C)c(C)c3)nn2CC1(C)C(=O)NC1CCCC1 (stereo unspecified)	i
Cn1c2c(c3ccccc31)C(C(=O)NCc1ccc(F)cc1)N(Cc1ccc(Cl)cc1)C(=O)CS2 (stereo unspecified)	i
CC1(C(=O)NCc2ccccc2)Cn2c(cc3ccccc32)C(=O)N1C1CCN(Cc2ccccc2)CC1 (stereo unspecified)	i
Cc1cc2c(cc3n2CC(C)(C(=O)NC2CCCCCCC2)N(Cc2ccccc2Cl)C3=O)o1 (stereo unspecified)	i
Cn1nccc1CN1CC2(C1)C(=O)Nc1ccccc12	i
O=C(c1ccccc1F)N1CCC(Cc2nc(-c3cnccn3)no2)CC1	i
Nc1nc(NCC2CCC(CNS(=O)(=O)c3cccc4ccccc34)CC2)nc2ccccc12 (stereo unspecified)	+
CN(C)c1ccc(C2NC(C(=O)O)Cc3c2[nH]c2ccccc32)cc1 (stereo unspecified)	i
CCN1CCN(C(=O)c2cc3n(n2)CC(C)(C(=O)NC2CCCCCC2)N(C)C3=O)CC1 (stereo unspecified)	i
CS(=O)(=O)N(C1CC1)C1CCOC2(CCN(C(=O)NCc3ccccc3)CC2)C1 (stereo unspecified)	i
NC(=O)c1cnc(N[C@@H]2CCCC[C@@H]2N)nc1Nc1cccc(-n2nccn2)c1	?
CCOC(=O)c1cc2n(n1)CC(C)(C(=O)NCc1ccc(C)cc1)N(c1cccc(Cl)c1C)C2=O (stereo unspecified)	i
c1ncc(CN2CCn3c(nnc3C3CCCNC3)C2)s1 (stereo unspecified)	i
CCN(Cc1nccn1C)C(=O)c1cc(-c2cnc(C)nc2)nc2ccc(F)cc12	i
CCOc1ccc(N(C(=O)c2ccncc2)S(=O)(=O)c2ccc3c(c2)n(C)c(=O)n3C)cc1	i
Cc1cccc(NC(=O)CSc2nnc3n(CC(C)C)c(=O)c4ccccc4n23)c1	i
C[C@]12CC[C@@H]3c4ccc(O)c(O)c4CC[C@H]3[C@@H]1CCC2=O	+
Cn1c(=O)c2ccc(C(=O)NC3CCCCC3)cc2n2c(=O)n(Cc3ccccc3)nc12	i
COC(=O)c1ccc2c(c1)[nH]c1ncnc(NCCCN3CCCCC3)c12	?
C[C@H](O)c1onc(-c2ccc(F)cc2)c1C(=O)N1CCCC1	i
CCCn1c(=O)c2ccc(C(=O)NC(C)C)cc2n2c(=O)n(CC(=O)Nc3ccccc3C)nc12	i
Cn1cccc1CN1CC(F)(F)C[C@H]1c1nnc(C2CC2)o1	i
CC(C)(O)C(O)C(=O)OCc1ccc(O[C@@H]2O[C@H](CO)[C@@H](O)[C@H](O)[C@H]2O)cc1 (stereo partly specified)	i
CN(C)[C@@H]1CO[C@H](CNC(=O)CC(C)(C)C)[C@H]1O	i
COc1ccc2c(c1)c(NC(C)=O)c1n2CC(C)(C(=O)NC2CCCC2)N(C2CCCCC2)C1=O (stereo unspecified)	i
CCCn1c(=O)c2cc(F)ccc2n2c(SCc3ccccc3Cl)nnc12	i
O=C(N[C@@H]1CCOC[C@H]1OCCO)c1ccc2c(c1)ncn2CCO	i
COc1cc(OC)cc(N2C(=O)c3cc(C(C)(C)C)nn3CC2(C)C(=O)NC2CCCCCC2)c1 (stereo unspecified)	i
O[C@@H](COc1cccc2ncccc12)CN1CCN(C2c3ccccc3[C@@H]3[C@H](c4ccccc42)C3(F)F)CC1 (stereo partly specified)	?
CCN1CCC2(CCC1=O)CN(Cc1nc(C(=O)NC)no1)CCN2C (stereo unspecified)	i
CCOC(=O)c1cc2n(n1)CC(C)(C(=O)NCc1ccc(C)cc1)N(c1cc(C)cc(C)c1)C2=O (stereo unspecified)	i
CC(C)CNC(=O)N1CCC(Nc2cccnc2)C1 (stereo unspecified)	i
O=C(CCCn1nc(-c2ccccc2)c2cc(Cl)ccc21)N1CCN(c2ccccn2)CC1	i

# The list continues.
smiles	Methyltransferases
CC(O)(C(=O)O)C1CCC2(C)C1CCC1(C)C2CCC2C3(C)CCC(O)C(C)(COC4OC(CO)C(O)C(O)C4O)C3CCC21C (stereo unspecified)	i
COc1cc(C(=O)OCCCN2CCCN(CCCOC(=O)c3cc(OC)c(OC)c(OC)c3)CC2)cc(OC)c1OC	i
C=CCNC(=O)N1CC[C@H]2CC(=O)N(C3CC3)CC[C@H]2C1	i
CCCC1c2ccc(C)n2CCN1C(=O)Nc1ccc(C)c(C)c1 (stereo unspecified)	i
CC1CCN(S(=O)(=O)c2ccc3c(ccn3CCC(=O)NC3CCCCC3C)c2)CC1 (stereo unspecified)	i
CC1(C)CC[C@]2(C(=O)O)CC[C@]3(C)C(=CCC4[C@@]5(C)CC[C@H](O[C@@H]6O[C@H](C(=O)O)[C@@H](O)[C@H](O)[C@H]6O)C(C)(CO)C5CC[C@]43C)C2C1 (stereo partly specified)	i
CCc1cccc(-n2nnnc2N2CCN(C(=O)Cc3ccc(C)c(F)c3)CC2)c1	i

# Grouped by structure: the compounds so far containing fluorine (13)
smiles	Methyltransferases
O=C(O)CCC(=O)N1Cc2[nH]cnc2C[C@H]1c1nc(-c2ccc(OC(F)(F)F)cc2)no1	i
CC(C)CCNC(=O)c1cc2n(n1)CC(C)(C(=O)NCc1ccc(F)cc1)N(C)C2=O (stereo unspecified)	i
O[C@@H]1C[C@@H](c2nc(Cc3ccc(F)cc3Cl)no2)N(Cc2ccc(OC(F)(F)F)cc2)C1	i
O=C(NCCc1ccc(F)cc1)c1cc(-c2ccccc2)c2nncn2n1	i
CCn1c(=O)n(CC)c2cc(S(=O)(=O)Nc3ccc(Br)cc3F)ccc21	i
Cn1c2c(c3ccccc31)C(C(=O)NCc1ccc(F)cc1)N(Cc1ccc(Cl)cc1)C(=O)CS2 (stereo unspecified)	i
O=C(c1ccccc1F)N1CCC(Cc2nc(-c3cnccn3)no2)CC1	i
CCN(Cc1nccn1C)C(=O)c1cc(-c2cnc(C)nc2)nc2ccc(F)cc12	i
C[C@H](O)c1onc(-c2ccc(F)cc2)c1C(=O)N1CCCC1	i
Cn1cccc1CN1CC(F)(F)C[C@H]1c1nnc(C2CC2)o1	i
CCCn1c(=O)c2cc(F)ccc2n2c(SCc3ccccc3Cl)nnc12	i
O[C@@H](COc1cccc2ncccc12)CN1CCN(C2c3ccccc3[C@@H]3[C@H](c4ccccc42)C3(F)F)CC1 (stereo partly specified)	?
CCc1cccc(-n2nnnc2N2CCN(C(=O)Cc3ccc(C)c(F)c3)CC2)c1	i

# From PubChem BioAssay
